miR-21 reporter – miR-21 reporter, rising signal | AID 2288 | Potency, µM (top dose mostly 38.3 µM), inactives show top-dose reporter change, positive = more light | HeLa miR-21 FLuc reporter, luciferase, 48 h | 340,000 tested, under 10 active; active = well fitted rising curve with a large enough effect; inconclusive = small, poorly fitted or top-dose-only effect; inactive = no such curve, though single readings can be large or run the other way;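 note: % of control where 0% means no effect; miR-21 action dims this reporter so a rising signal means less miR-21 action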
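HeLa cells endogenously expressing miR-21, stably carrying CMV-driven firefly luciferase with a downstream miR-21 binding site, 2000 cells/well. Titrations up to approximately 40 uM, 48 hours; luciferase luminescence read.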
GLA inh pH 4.5 – blocks human alpha-galactosidase A at pH 4.5; activity change, negative = inhibition, % at 105 µM; P06280; 230,000 tested, under 10 active; AID 1467; purified enzyme, 4-MU-alpha-Gal fluorescence, pH 4.5; inconclusive = small, poorly fitted or top-dose-only inhibition, or a rising curve; inactive = flat fitted curve, though single readings scatter; no compound was filed as active;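 note: 0% = full activity with enzyme and -100% = basal without enzyme; dose as in the result columns while the protocol names 77 µM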
Target sequence (P06280 whole entry, looked up): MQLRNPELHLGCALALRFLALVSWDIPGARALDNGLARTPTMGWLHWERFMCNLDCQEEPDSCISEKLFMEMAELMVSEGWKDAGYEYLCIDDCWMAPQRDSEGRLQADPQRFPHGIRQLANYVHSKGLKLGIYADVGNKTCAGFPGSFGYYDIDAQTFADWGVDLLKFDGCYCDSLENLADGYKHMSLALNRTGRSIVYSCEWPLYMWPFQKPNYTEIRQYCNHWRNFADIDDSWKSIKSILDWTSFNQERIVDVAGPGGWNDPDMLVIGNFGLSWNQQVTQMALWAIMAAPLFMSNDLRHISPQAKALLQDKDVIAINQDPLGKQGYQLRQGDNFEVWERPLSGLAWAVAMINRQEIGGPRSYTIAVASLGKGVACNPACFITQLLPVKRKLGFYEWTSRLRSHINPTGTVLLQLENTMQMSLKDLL
Rango-impB inh – inhibitors of Rango-importin beta complex formation | Q14974 | Rango CFP/YFP FRET sensor + importin beta, 45 min | 340,000 compounds, 0.031% hits | Potency, µM (series often up to 92.2 µM), without a hit: at the top dose inhibition of complex formation; active = rising FRET ratio curve, often small or poorly fitted; inconclusive = mostly compound fluorescence or quenching in the first reads; inactive = flat curves in all reads;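 note: potency is the fitted concentration of half-maximal effect; 0% = DMSO wells and 100% = buffer wells lacking importin beta; nearly all actives have a fitted effect of over 15% in size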
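Inhibition scored from the CFP 486 nm/YFP 530 nm FRET ratio 45 min after adding 0.125 microM importin beta to 50 nM Rango biosensor preincubated 5 min with compound (room temperature, PBS with DTT, Tween-20, BSA). No-importin wells as positive control.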
Rango release inh – prevents RanGTP from dissociating the Rango-importin beta complex. 340,000 compounds, 0.071% hits. AID 540253. Biochemical FRET Rango-importin beta, RanGTP-induced dissociation. O95149+P62826. Potency, µM (highest dose often 46.1 µM), inactives show at the highest dose activity change, negative = inhibition; active means falling FRET ratio curve, often poorly fitted, with flat reads before Ran was added; inconclusive means other falling curves, or compound fluorescence or quenching; inactive means flat or rising ratio curve;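 note: potency is the fitted concentration of half-maximal effect; % of control where 0% means no effect; nearly all actives have a fitted effect of over 45% in size; -100% = wells without RanGTP and RCC1; the record marks most hits as doubtful in a second field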
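Rango FRET biosensor (snurportin-1 IBB flanked by N-terminal EYFP and C-terminal CFP10) at 0.1 uM, with 0.25 uM importin beta in PBS, 1mM DTT, 0.02% Tween-20, 0.1% BSA. 0.6 uM Ran, 2mM GTP and 0.2 uM RCC1 were then added for 45 min at room temperature. Inhibition read as loss of FRET rise.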
The depositor's hits bear a star; ? = inconclusive; . = no result given; & = joins results of further samples; [ ] = another dose, or the depositor's remark.

SMILES	miR-21 reporter	GLA inh pH 4.5	Rango-impB inh	Rango release inh
CCN(CC)CC(=O)N1N=C(c2cccs2)CC1c1ccco1 (stereo unspecified)	-2.9%	3.8	-0.4%	1.7%
NS(=O)(=O)c1cnccc1NCCc1ccccc1	.	.	-1.4%	19.9%
COc1ccc(N2CSC3=C(C#N)C(c4cccc(OC)c4OC)CC(=O)N3C2)cc1 (stereo unspecified)	-17.3%	0.2	?	?
Cc1nc(C)n(CC(O)COc2ccc(C(=O)c3ccccc3)cc2)n1 (stereo unspecified)	9.4%	-11.5	?	-5.0%
CCOC(=O)c1c(/N=C/c2cccc(C)c2O)sc2c1CCN(C)C2	-9.1%	9.2	?	?
COc1cc(C(=S)N2CCCCC2)ccc1OCC(=O)Nc1ccccc1Cl	0.8%	-14.1	-0.1%	4.2%
CNC(=O)COc1coc(CN2CCN(c3ccc(F)cc3)CC2)cc1=O	0.1%	.	-0.4%	-8.5%
CCOc1ccc2nc(NS(=O)(=O)c3ccc(NC(C)=O)cc3)sc2c1	-17.9%	-7.1	0.2%	-14.3%
CCn1c(SCC(=O)N2CCCC2)nc2ccccc2c1=O	1.0%	1.5	-1.3%	6.4%
COc1ccc(S(=O)(=O)Nc2ccccn2)c(C)c1C	-0.1%	-11.8	0.1%	18.6%
CN1CCN(C(CNC(=O)c2ccc(Br)o2)c2ccc(F)cc2)CC1 (stereo unspecified)	.	.	6.0%	-4.6%
O=C(Nc1nc(-c2ccccc2)cs1)C1COc2ccccc2O1 (stereo unspecified)	-22.0%	-1.1	-0.3%	?
COc1cc(C(=O)N2CCC(C(=O)Nc3cccc(C(C)=O)c3)CC2)cc(OC)c1OC	-6.4%	3.1	0.8%	15.6%
Cc1nc(NC(=O)c2ccccc2)sc1Cc1ccc2c(c1)OCO2	-7.2%	-3.3	-1.4%	15.3%
N#Cc1ccc(C23CC4(C2)[C@H](CN(Cc2ccc(C(F)(F)F)cc2)[C@@H]4c2ccccc2)C3c2ccc(Cl)nc2)cc1 (stereo partly specified)	0.9%	-3.4&-3.7	.	.
O=C(NC1CCCCCC1)C(Cc1ccccc1)n1cccc1 (stereo unspecified)	-5.4%	-9.5	-1.5%	-11.8%
COc1ccc([C@H]2CC(=O)C=C(c3ccc(O)cc3)C2)cc1OC	.	.	6.7%	-14.3%
Cc1ccc(NC(=O)Cc2c(O)c3ccccc3[nH]c2=O)c(C)c1	-5.1%	1.0	0.6%	11.7%
CC(C)Cn1c(SCC(=O)c2ccc(Cl)s2)nnc1-c1ccco1	-18.3%	-1.3	0.1%	-0.5%
COc1ccc(-c2nn(-c3ccccc3)cc2N)cc1	-64.0%	3.2[21.1 µM]	-1.0%	-0.4%
Cc1ccc[n+](CC(=O)/C=C2\N(C)c3ccccc3C2(C)C)c1	?	-4.9	0.5%	-4.4%
Cc1ccccc1Cn1cnc2c(cnn2C(C)(C)C)c1=O	-2.7%	0.1	-1.6%	-2.2%
O=C(O)CNS(=O)(=O)c1ccc(C2CCCCC2)cc1	-2.3%	-18.9	-2.5%	0.6%
CCCCC(=O)NC(=S)NNC(=O)c1ccc(OC)cc1	12.6%	-0.7	3.8%	19.9%
CCCSc1nc(O)c(C2OC(=O)c3c2ccc(OC)c3OC)c(=O)n1-c1ccccc1 (stereo unspecified)	-0.8%	7.7	3.4%	5.8%

Quoted at random: 3 records from the list, in no set order.
SMILES	miR-21 reporter	GLA inh pH 4.5	Rango-impB inh	Rango release inh
Cc1nc(NC(=O)c2ccccc2)sc1Cc1ccc2c(c1)OCO2	-7.2%	-3.3	-1.4%	15.3%
COc1cc(C(=S)N2CCCCC2)ccc1OCC(=O)Nc1ccccc1Cl	0.8%	-14.1	-0.1%	4.2%
COc1cc(C(=O)N2CCC(C(=O)Nc3cccc(C(C)=O)c3)CC2)cc(OC)c1OC	-6.4%	3.1	0.8%	15.6%

Later entries.
SMILES	miR-21 reporter	GLA inh pH 4.5	Rango-impB inh	Rango release inh
CCOC(=O)c1ccc(NC(=O)Cn2nnc(-c3ccc(F)cc3)n2)cc1	-0.6%	1.3	-3.4%	-6.3%
CN1CCN(C(=O)c2ccc(C(C)(C)C)cc2)CC1	-5.6%	-2.4	-0.7%	-4.5%
CC(=O)N1c2ccccc2C2CCCC[C@@H]21 (stereo partly specified)	.	.	0.0%	11.0%
COC(=O)C1=C(C)N(Cc2ccccc2)C(=O)N[C@H]1c1ccco1	.	17.1	0.9%	-14.2%
CC(=O)Nc1cc2ccc(OC(C)=O)cc2oc1=O	-0.8%	?	?	?
Cc1ccc(OCCN2CCOCC2)cc1C	-25.3%	.	2.5%	31.5%
CN(C)c1ccc(C(CNC(=O)c2ccccc2Br)c2c[nH]c3ccccc23)cc1 (stereo unspecified)	-10.5%	4.6	-1.2%	-12.5%
CCOC(=O)CN1C(=O)C(=O)N(Cc2cccc(C)c2)C1=O	-1.8%	.	2.9%	5.2%
CCOC(=O)N1CCN(C(=O)CCCCn2c(=S)[nH]c3ccsc3c2=O)CC1	-0.8%	-1.2[21.1 µM]	0.0%	0.6%
CC(C)Cn1c(=O)[nH]c(=O)c2c(C(F)(F)F)cc(-c3ccccc3)nc21	-13.9%	9.1	-2.5%	21.9%
COc1ccc(C)cc1NC(=O)CN1CCCC1c1ccc2c(c1)OCCCO2 (stereo unspecified)	.	.	3.0%	-3.7%
O=C(CSc1nncs1)Nc1cc(S(=O)(=O)N2CCOCC2)ccc1N1CCCC1	.	.	-0.7%	9.8%
CCN(c1ccccc1)S(=O)(=O)c1ccc(C(=O)Nc2cc(C)ccn2)cc1	.	.	?	19.5%
Cc1ccc2c(c1)[C@@H]1[C@H](CO2)[C@H](c2ccccc2)[C@@]2(C)C(=O)N[C@H](C)C(=O)N12	.	.	3.6%	-21.6%
CN(C)/C=N/c1nc2nccc(-c3cccc(Cl)c3)n2n1	-7.1%	5.3	1.4%	-9.3%
Cc1noc(C)c1S(=O)(=O)N1CCCC(C(=O)NCC2CCCO2)C1 (stereo unspecified)	0.9%	0.6	-1.9%	14.2%
COCC(C)NC(=O)COc1ccc(Cl)cc1Cl (stereo unspecified)	-12.3%	-2.3	-0.5%	7.9%
Cc1ccc(CSc2nc3c(c(=O)[nH]2)C(c2ccncc2)C2=C(CCCC2=O)N3)cc1 (stereo unspecified)	0.5%	-15.6	?	-7.2%
Cc1c(C(=O)Nc2ccccc2-c2ccccc2)cccc1[N+](=O)[O-]	-1.2%	4.2	1.8%	10.7%
O=C(OCC(O)CO)c1ccccc1Nc1ccnc2cc(Cl)ccc12 (stereo unspecified)	.	-3.7	2.3%	-8.4%
O=C(CN1C(=O)CCC1=O)Nc1nc(-c2ccc(Oc3ccccc3)cc2)cs1	-4.6%	0.3	-5.6%	2.4%
CCCCNc1nnc(SCC(=O)N2CCN(S(=O)(=O)c3ccc4ccccc4c3)CC2)s1	11.3%	-14.1	2.8%	-5.6%
CC(=O)c1nn(-c2cccc(Cl)c2)cc1C(=O)c1ccco1	-0.1%	-2.8	2.3%	-11.2%
COc1ccc(Cn2ccnc2)cc1[N+](=O)[O-]	-4.3%	-1.5	3.1%	8.6%
Cc1cccc(N2C(=N)SCC2=O)c1C	-7.5%	0.8	7.4%	-15.1%

4 entries from above, reformatted:
Below each SMILES: miR-21 reporter, GLA inh pH 4.5, Rango-impB inh, Rango release inh
- Cc1nc(NC(=O)c2ccccc2)sc1Cc1ccc2c(c1)OCO2
    -7.2%, -3.3, -1.4%, 15.3%
- CCN(c1ccccc1)S(=O)(=O)c1ccc(C(=O)Nc2cc(C)ccn2)cc1
    ., ., ?, 19.5%
- COc1ccc([C@H]2CC(=O)C=C(c3ccc(O)cc3)C2)cc1OC
    ., ., 6.7%, -14.3%
- O=C(CSc1nncs1)Nc1cc(S(=O)(=O)N2CCOCC2)ccc1N1CCCC1
    ., ., -0.7%, 9.8%

Full records, looked up by structure.
N#Cc1ccc(C23CC4(C2)[C@H](CN(Cc2ccc(C(F)(F)F)cc2)[C@@H]4c2ccccc2)C3c2ccc(Cl)nc2)cc1 (stereo partly specified) reads miR-21 reporter = 0.9%; GLA inh pH 4.5 = -3.4&-3.7; Rango-impB inh = .; Rango release inh = .
Cc1nc(NC(=O)c2ccccc2)sc1Cc1ccc2c(c1)OCO2 reads miR-21 reporter = -7.2%; GLA inh pH 4.5 = -3.3; Rango-impB inh = -1.4%; Rango release inh = 15.3%
COCC(C)NC(=O)COc1ccc(Cl)cc1Cl (stereo unspecified) reads miR-21 reporter = -12.3%; GLA inh pH 4.5 = -2.3; Rango-impB inh = -0.5%; Rango release inh = 7.9%

Further records follow.
SMILES	miR-21 reporter	GLA inh pH 4.5	Rango-impB inh	Rango release inh
CN1CCN(S(=O)(=O)c2ccccc2)C(c2ccccc2)C1 (stereo unspecified)	.	.	1.5%	-19.1%
COc1cc2c(C(F)(F)F)c(-c3ccc(C#N)cc3)oc(=O)c2cc1OC	.	.	2.0%	6.1%
CCOc1cc(C(=O)Nn2cnnc2)cc(OCC)c1OCC	-3.0%	4.6	-1.3%	-10.0%
CCC(=O)NC1(Cc2ccc(O)cc2)CCCCC1	-8.8%	-0.9	3.5%	8.8%
Cn1c(-c2ccccc2)c(/C=N/NC(=O)c2ccc(O)cc2)c2ccccc21	-39.8%	-10.1	-2.8%	7.2%
Cc1cc(S(=O)(=O)N2CCOCC2)ccc1OCC(=O)Nc1ccccc1C(F)(F)F	1.6%	.	1.5%	0.4%
COc1ccc(CN(C)C(=O)Cn2ccc(N)nc2=O)cc1OC	.	.	2.4%	9.0%
Cc1c(C(=O)N2CCc3ccccc32)oc2c1C(=O)CC(C)(C)C2	-59.9%	2.8	-1.7%	0.4%
C[C@H](NC(=O)c1ccccc1Cl)C(=O)OCCOc1ccc(Cl)cc1	-8.7%	1.5	-1.6%	-22.9%
Clc1ccc(-c2nc3ccncc3[nH]2)cc1	-83.4%	2.7	0.5%	-8.1%
COC(=O)/C(C#N)=C/c1c(N2CCN(c3ccccc3)CC2)nc2ccccn2c1=O	-39.0%	.	1.6%	-19.3%
CC1CC(=O)NN=C1c1ccc(N)c([N+](=O)[O-])c1 (stereo unspecified)	-36.2%	-3.9	-0.4%	-14.0%
Cc1cccc(NC(=S)NC(C)CCc2ccccc2)c1 (stereo unspecified)	1.3%	-10.9	-3.8%	23.7%
Cc1ccc(C)c(OC(C)C(=O)Nc2ccc(S(=O)(=O)Nc3nccs3)cc2)c1 (stereo unspecified)	-0.7%	.	?	-7.0%
CCCCN(C(=O)CC1OC(=O)c2ccccc21)c1c(N)n(CCCC)c(=O)[nH]c1=O (stereo unspecified)	.	.	0.2%	12.4%
Cc1cccc(-c2noc(CN(C(=O)c3ccc4c(c3)OCO4)C(C)C)n2)c1	6.0%	-21.8	3.3%	16.9%
O=c1c2ccccc2c(C=NC2CCS(=O)(=O)C2)c(O)n1-c1ccccc1 (stereo unspecified)	2.2%	2.3	-5.2%	-15.2%
COc1ccc(NC(=O)c2ccc3c(c2)C(=O)N(Cc2ccncc2)C3=O)cc1S(N)(=O)=O	.	.	-0.2%	1.2%
COC(=O)c1ccc(NC(=O)C2CC3CCC2C3)cc1 (stereo unspecified)	.	.	-0.7%	-9.9%

Bioassay records from PubChem.

Not all compounds are listed; count on the stated rates, not on these rows.
